AID504770 = growth inhibition of E. coli YBA685, primary screen, V. cholerae RctB inhibitors | E. coli YBA685 rctB-dependent plasmid, OD600 growth, 3 h; active compounds read low | z-score (no concentration beside the values) | hit rate 0.27% among 130,000 | AID 504770, 2011;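 active means z-score under -2 on both plates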;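 further: wells of about 30 µL received 100 nL stock; score is relative to mean and SD of the test wells; the first replicate is given; strong numbers were not always called active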
CapD inh = Bacillus anthracis CapD inhibitors, primary screen, biochemical, fluorescence intensity | CapD gamma-glutamyltranspeptidase (Bacillus anthracis Ames Ancestor) | purified CapD enzyme, fluorescence intensity read-out; active compounds read low; some hits fall short of the stated cut | z-score (no concentration beside the values) | hit rate 0.23% among 140,000 | AID 492967, 2010;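 active means z-score under -4 in either of two replicates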;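 further: stock transfer was 100 nL into about 40 µL; score is relative to mean and spread of the plate; one replicate is shown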
Starred values were filed as active, the others as inactive; nt = not tested or not shown. Some of the compounds tested; count on the stated rates, not on these rows.

Results follow in this order: AID504770, CapD inh
> CCN1C(=O)C(C2SC(=S)N(CC)C2=O)SC1=S (stereo not given)
  -0.5, nt
> CCOC(=O)C1=C(C)Nc2nnnn2C1c1ccc(OCc2ccccc2)cc1 (stereo not given)
  nt, -1.4
> N#Cc1c(-n2ncnc2-c2ccc(Cl)cc2)sc2c1CCCCC2
  0.65, 0.15
> COc1ccc(NC(C)=O)cc1C
  0.3, 6.2
> Cc1ccccc1NS(=O)(=O)c1ccc(C2CNC(=O)C2)cc1 (stereo not given)
  -0.85, -0.25
> O=C(CN1C(=O)c2cccnc2Oc2ccccc21)NCc1ccccc1
  -0.8, -1.5
> N#Cc1cccc(Cn2c(/C=C/c3ccccc3Cl)nc3ccccc32)c1
  nt, 62
> COC(=O)c1ccc(OCC(=O)c2cc(C)n(-c3cc(C)on3)c2C)cc1
  0.2, nt
> COC(=O)c1cc(C(C)(C)C)[nH]n1
  -1.1, nt
> CCn1c(=O)c(C(=O)CNc2ccc(S(C)(=O)=O)cc2)c(N)n(Cc2ccccc2)c1=O
  1.2, nt
> Cc1cc(=O)[nH]c2c(C)cc(S(=O)(=O)N3CCOCC3)cc12
  0.5, nt
> Cc1ccc(NC(=O)C2CCN(S(=O)(=O)c3cccs3)CC2)cc1C
  0.1, nt
> O=C1/C(=C\c2ccc3c(c2)OCO3)N2CCC1CC2
  nt, -1.9
> CCOC(=O)c1ccc(NC(=O)c2sc(NC(=O)c3ccccc3F)c(C(=O)OCC)c2C)cc1
  nt, 0.43
> CCN1CCOC2(O)C=CC(=O)C=C12 (stereo not given)
  -0.45, nt
> O=C(OCCc1c(F)cccc1Cl)N1CCN(c2ccc([N+](=O)[O-])cc2)CC1
  nt, 1.2
> COc1ccccc1N1C(=O)CSC1=NC(=O)c1ccccc1
  -0.5, nt
> COC(=O)C1=C(NNc2ccccc2)CSC1
  -1.1, 0.095
> CCc1ccc(CN2CCN(Cc3ccc4c(c3)OCO4)CC2)cc1
  -0.5, -0.14
> O=C(NC(Cc1c[nH]c2ccccc12)C(=O)NCc1ccccc1)Oc1ccccc1 (stereo not given)
  nt, 0.11

3 structures out of the list, arranged by length of the SMILES, highest first:
Results follow in this order: AID504770, CapD inh
> CCc1ccc(CN2CCN(Cc3ccc4c(c3)OCO4)CC2)cc1
  -0.5, -0.14
> O=C1/C(=C\c2ccc3c(c2)OCO3)N2CCC1CC2
  nt, -1.9
> CCN1CCOC2(O)C=CC(=O)C=C12 (stereo not given)
  -0.45, nt

New compounds follow.
Results follow in this order: AID504770, CapD inh
> Cc1ccc(N=Cc2c(CSc3ccc(C)cc3)[nH]n(-c3nc4ccccc4s3)c2=O)cc1
  nt, 0.4
> C=CCOc1ccc(/C=C2/SC(=Nc3ccccc3)NC2=O)cc1OCC
  nt, 0.33
> CCN1CCCC1CNC(=O)c1c(-c2c(Cl)cccc2Cl)noc1C (stereo not given)
  -0.7, 0.86
> CC(C)(C)c1ccc(NC(=O)c2ccco2)c(N)c1
  -1.2, -0.05
> CCOc1cc(C(c2c(C)[nH]n(-c3ccccc3)c2=O)c2c(C)[nH]n(-c3ccccc3)c2=O)ccc1OC
  nt, -1.1
> N#CC1=C(SCC(N)=O)NC2=C(C(=O)CCC2)C1c1cccc(Cl)c1Cl (stereo not given)
  -1, 7.4
> N#C/C(=C/C1=Cc2ccccc2OC1)c1nc2ccccc2s1
  -0.85, 1.1
> Cc1c(C(=O)N(Cc2ccccc2)Cc2cccnc2)cnn1-c1ccc(F)cc1
  -0.2, 0.93
> O=C(c1cccc(S(=O)(=O)Nc2cccc(Cl)c2)c1)N1CCCCC1
  0.2, 0.19
> COc1cc(C2NC(=O)c3cc([N+](=O)[O-])ccc3N2)cc(OC)c1OC (stereo not given)
  nt, -0.17
> O=C(CSc1ccc(C(=O)O)cn1)Nc1ccc(OC(F)(F)F)cc1
  -0.25, -0.1
> Cc1cc2ncc(S(=O)(=O)C(C)(C)C)c(N)n2n1
  -0.65, 0.61
> CC(=O)Nc1ccc(S(=O)(=O)c2cc(O)ccc2O)cc1
  0.4, nt
> CNC(=O)c1cccc(N)c1
  0.05, nt
> Cc1ccc(C)c(S(=O)(=O)CCC(=O)O)c1
  0, nt
> CC(C)NC(=O)c1c2c(nc3ccccc13)CCCC2
  0.55, 0.51
> COc1ccc(NC(=O)c2cnc3scc(C)n3c2=O)c(OC)c1
  -0.05, -2.2
> O=S(=O)(c1ccccc1)N(Cc1ccccc1)Cc1ccccc1
  -0.4, -0.29
> CC(CN1CCOCC1)OC(=O)c1ccc2c(c1)OCCO2 (stereo not given)
  -0.75, -0.075
> O=c1[nH]c2ccc(S(=O)(=O)NC3CC3)cc2[nH]1
  0.45, 4.9
> CCOC(=O)c1ccc(-c2ccc(/C=C3\C(=O)N(c4ccc(S(N)(=O)=O)cc4)N=C3C)o2)cc1
  nt, -0.12
> COc1ccc(CCNc2nc3c(c(C(F)(F)F)n2)CCCCC3)cc1OC
  0, 5.4
> Cc1ccc(C)c(CSc2nnc(C)n3c2cc2occc23)c1
  0.15, 0.16
> COc1cc(OC)c(-c2nc3c4ccccc4c4ccccc4c3[nH]2)c(OC)c1
  nt, 41
> COc1ccc(C2C(C(=O)Nc3ccccn3)c3ccccc3C(=O)N2C)cc1 (stereo not given)
  -4.5, -0.26
> Cc1nnc(SC(C(N)=O)C(N)=O)s1
  0.25, nt
> Cc1nn(-c2ccccc2)nc1C(=O)Oc1ccc(Cl)cc1
  -0.85, -0.53
> CCOC(=O)C1=C(C)N=C2c3ccccc3C(=O)C2C1c1ccccc1 (stereo not given)
  0.4, 0.43
> Cc1cccc(C)c1NC1=NC2CS(=O)(=O)CC2S1 (stereo not given)
  0.1, 0.065
> O=C(O)COCc1ccc(Br)cc1
  0.65, -0.56
> CC(C)(C)c1ccc(N2C(=O)/C(=C/c3ccc(-c4ccc(Br)cc4)o3)C=C2c2ccccc2)cc1
  nt, 0.85
> N#Cc1ccc(OCC(=O)Nc2cccnc2Cl)cc1
  0.65, -0.28
> Cc1cc(C)n(C(=O)c2ccc(S(=O)(=O)N3CCCCCC3)cc2)n1
  0.35, 0.64
> Cn1c(=O)c2c(nc3n2C(=O)CS3)n(C)c1=O
  nt, 6.2
> Cc1cc(C)n2nc(-c3ccccc3)c(Br)c2n1
  -0.25, 0.8
> CN(C)C(=O)N1c2ccccc2Sc2ccccc21
  -3.4, nt
> Cc1oc2ccc(O)c(CN3CCC(C)CC3)c2c1C(=O)Nc1cccc(C(F)(F)F)c1
  2, -0.6
> c1ccc2c(c1)nnn2CNc1nonc1-c1ncon1
  0.75, -0.44
> O=C(NCc1ccccc1Cl)c1ccc2nc(N3CCOCC3)sc2c1
  -0.15, 0.96
> CC1=C(C(=O)Nc2ccc(Cl)cc2C(=O)NC2CCCC2)SCCO1
  1.6, 0.22
> Nc1nnc(SCC(=O)Nc2nnc(C(F)(F)F)s2)s1
  0.75, nt
> COc1ccc(CC(=O)OCc2nc3ccc(Cl)cc3n2CCO)cc1OC
  -0.75, nt
> O=C(C1=NN(c2ccccc2)C2(S1)c1ccccc1C(c1ccc(Br)cc1)=NN2c1ccccc1)c1ccccc1 (stereo not given)
  nt, -0.15
> O=C(O)c1ccccc1N1C(=O)C2C3C=CC(C3)C2C1=O (stereo not given)
  -0.6, -0.34
> O=S1(=O)CCC(S(=O)(=O)N2CCOCC2)C1 (stereo not given)
  -0.55, 0.28
> O=C(NC(=O)c1cccc(F)c1)Nc1nc(-c2ccccc2)cc(C(F)(F)F)n1
  0.55, 2.9
> Cc1ccc(OCCN2C(=O)OC(C)(C)C2(C)O)cc1 (stereo not given)
  -0.35, -0.18
> CCCNC(=O)c1noc2c1CCc1ccccc1-2
  -0.6, 0.85
> CN(C)C(=O)COC(=O)c1ccccc1Nc1ccc(SC(F)F)cc1
  -0.15, nt
> O=C(Nc1ccc(NC(=O)c2ccccc2O)cc1)c1ccccc1
  1.1, 0.32
> Cc1cc(C)n(C(=O)c2ccc(S(=O)(=O)N3CCCC3)cc2)n1
  -0.2, 0.14
> O=C(CCc1ccccc1)Nc1ccc2sccc2c1
  -0.05, 0.45
> O=C(CNCCC1=CCCCC1)Nc1ccccc1N1CCCCC1
  0.25, nt
> NC(=O)CSc1ccc2nnc(-c3ccc(Cl)cc3)n2n1
  -0.8, nt
> COc1ccccc1NC(=O)C1CC(=O)N(C)C(=Nc2cccc(C(F)(F)F)c2)S1 (stereo not given)
  nt, -0.31
> O=C1CCC(O)N1CCc1cnc[nH]1 (stereo not given)
  nt, 0.44
> O=C(C1=C(O)c2ccccc2C1=O)c1cccs1
  1, -0.24
> O=c1ccn(-c2ccccc2)[nH]1
  -1.1, -0.36
> Cc1ccc(S(=O)(=O)N2CN3CCN(C3)C2)cc1
  nt, -0.72
> O=C(O)c1ccccc1C(=O)N1CCN(c2ccc(F)cc2)CC1
  2.3, 0.37

More records follow:
Results follow in this order: AID504770, CapD inh
> NC(=O)CCCC1=NS(=O)(=O)c2ccccc2N1
  1.4, -0.35
> O=c1c(O)c(-c2cccs2)[nH]c2cc(Cl)ccc12
  -0.2, nt
> CN(Cn1[nH]c(=O)ccc1=O)c1ccccc1
  0.55, -1.3
> CCOC(=O)c1c(NC(=O)CN2CCCC2c2cccn2C)sc(C)c1C (stereo not given)
  -0.65, nt
> Cc1ccc(C(=O)C(C)Sc2nnc3ccccn23)cc1 (stereo not given)
  -0.05, nt
> COc1ccc(NCn2nnc3ccccc32)cc1
  -0.95, -0.12
> O=C1c2ccccc2S(=O)(=O)N1c1c(F)c(F)c(C(F)(F)F)c(F)c1F
  nt, -0.11
> COc1cccc(NC(=S)N/N=C/c2ccc(O)cc2)c1
  1.4, nt
> N/C(CS(=O)(=O)c1ccccn1)=N\OC(=O)c1ccc(Cl)cc1
  nt, -0.08
> NNC(=O)COc1ccccc1CSc1ccc(Cl)cc1
  nt, -0.27
> CC1=C(C(=O)Nc2ccc(C)cc2)C(c2cccnc2)n2nnnc2N1 (stereo not given)
  nt, -0.28
> CC1=CC(C)C(C(=O)O)C(C(=O)N2CCN(C)CC2)C1 (stereo not given)
  1.1, 0.49
> Cc1ccc(S(=O)(=O)c2cnc(C)nc2-c2cccnc2)cc1
  nt, 0.23
> Cc1ccc(/C(O)=C2\C(=O)C(=O)N(c3ccccn3)C2c2cccc(Br)c2)cc1 (stereo not given)
  nt, -0.33
> CN(/N=C/c1ccc(C(C)(C)C)cc1)C1=NCCN1
  -0.1, -1.5
> CSc1nsc(SCC(=O)NC2CCCCC2)n1
  0.4, -0.15
> O=C(O)/C=C/c1c(Cl)nc2ccccn12
  -0.45, nt
> COc1ccc(C(=O)N2c3ccccc3CCc3ccccc32)cc1
  -0.3, -0.025
> O=C1CS/C(=C\c2nc3ccccc3s2)N1
  1.2, nt
> O=C(C/C=N/OCc1cnc(Cl)s1)c1ccc(Br)cc1
  nt, -0.18
> CC1CCCCC1NC(=O)CCSCc1cccc(Cl)c1 (stereo not given)
  -0.4, -0.49
> CN1CCN(P2(=S)C3=C(CCC3)C3=C(CCC3)N2c2ccccc2)CC1 (stereo not given)
  -0.4, nt
> Cc1ccc(COc2ccc(Br)cc2/C=c2/sc3nc4ccccc4n3c2=O)cc1
  nt, -0.005
> CC(=O)Nc1ccc(C(=O)NC(CSCc2ccccc2)C(=O)OCc2ccccc2)cc1 (stereo not given)
  nt, 1.3
> COc1ccc(C2(O)CN(c3ccc(Cl)cc3)C3=[N+]2CCCC3)cc1OC (stereo not given)
  nt, -0.075
> CN(C)/C=C(\C#N)C(=O)NCc1ccc(F)cc1F
  -0.15, 0.18
> N#Cc1c(-c2ccc(Cl)cc2)cc(-c2ccc(C(F)(F)F)cc2)[nH]c1=O
  nt, 31
> O=C(CCS(=O)(=O)c1ccc2c(c1)OCC(=O)N2)NCc1ccccc1Cl
  -0.55, -0.53
> CCOC(=O)C1C(=O)NC(N2CCc3ccccc32)=NC1c1ccco1 (stereo not given)
  -0.35, -0.085
> OC1(C(F)(F)F)CC(c2ccncc2)=NN1 (stereo not given)
  -1.1, -0.35
> O=C(C1CCCO1)N1CCN(C(=S)NC2CCCCC2)CC1 (stereo not given)
  -0.4, 0.1
> Cc1cc2oc(=O)cc(Cn3ccsc3=N)c2cc1C(C)C
  0.1, nt
> O=C(O)CSc1cc(Cl)nc(Cl)c1
  nt, -0.72
> O=C(c1ccc(F)c(F)c1)c1cc2ccccc2o1
  nt, -0.33
> CCOC(=O)c1ccc2nonc2c1
  nt, 0.79
> CC(C)(C)c1ccc(C(=O)N/C(=C\c2ccc([N+](=O)[O-])cc2)C(=O)Nc2ccc(Cl)cc2)cc1
  nt, -0.08
> CCN(CC(=O)Nc1ccc(NC(C)=O)cc1)C(=O)c1ccccc1SCc1c(C)noc1C
  -0.05, nt
> Cc1cc(C)cc(-n2ccnc(NCc3ccc4c(c3)OCO4)c2=O)c1
  0.9, 9.9
> Cc1cc(NC(=O)CSc2ncccn2)no1
  0.75, 0.28
> COc1ccc(CCn2c(SCC(=O)N3CCN(c4ccccc4OC)CC3)nc3ccccc3c2=O)cc1OC
  nt, 0.42
> Cc1ccnc2nc(C(=O)NC3CCCc4ccccc43)nn12 (stereo not given)
  1.1, nt
> NC(=O)C1CCN(Cc2cc(=O)n3ccsc3n2)CC1
  -1.1, nt
> CCOC(=O)c1ccc2c(c1)C1C=CCC1C(c1ccc(OC(C)=O)cc1OC(C)=O)N2 (stereo not given)
  nt, 0.17
> Cc1ccc(Oc2ccc(C)cc2)cc1
  nt, -0.2

Profiles from above.
Results for O=C(CSc1ccc(C(=O)O)cn1)Nc1ccc(OC(F)(F)F)cc1 : AID504770: -0.25; CapD inh: -0.1
Results for CN(Cn1[nH]c(=O)ccc1=O)c1ccccc1 : AID504770: 0.55; CapD inh: -1.3
